Bioassay records from PubChem BioAssay.
ID4 binder = binders of human ID4 protein, primary screen, biochemical, small molecule microarray, single point | Flag-ID4 binding, fluorescence F/B | 1.2% of 31,000 active | AID 624137, 2012 | calls only;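 active = spot signal over background at p below 0.07 in all four prints; compounds were printed on slides so no solution concentration is given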;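 note: a binder raises fluorescence above local background on the spot; about 2 pmol printed per array spot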
Target sequence (P47928 whole entry, looked up): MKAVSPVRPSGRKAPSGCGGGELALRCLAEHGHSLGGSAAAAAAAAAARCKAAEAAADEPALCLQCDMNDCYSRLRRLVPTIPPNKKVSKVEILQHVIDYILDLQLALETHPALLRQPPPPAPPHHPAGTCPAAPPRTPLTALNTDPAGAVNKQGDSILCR
Calls only; i = inactive.

SMILES | ID4 binder
CCC(=O)N[C@@H]1CC[C@H](CC(=O)OC)O[C@H]1CO | i
CC(C)c1ccc2oc(-c3ccc(Cl)c(NC(=O)COc4ccc([N+](=O)[O-])cc4)c3)nc2c1 | i
CCC(=O)N(C)C[C@H]1Oc2ncc(C#CCC(C)C)cc2C(=O)N([C@H](C)CO)C[C@@H]1C | i
CCCN(C)C[C@H]1Oc2cc(C#CCN(C)C)ccc2S(=O)(=O)N([C@H](C)CO)C[C@H]1C | i
CCn1c(SCC(=O)Nc2sc3c(c2C#N)CCC(C(C)(C)C)C3)nnc1-c1cccc(C)c1 (configuration not stated) | i
CC(C)C#Cc1cnc2c(c1)C(=O)N([C@H](C)CO)C[C@@H](C)[C@H](CN(C)Cc1ccc3c(c1)OCO3)O2 | i
O=C(C[C@H]1CC[C@H](NC(=O)CC2CC2)[C@H](CO)O1)NCc1ccc(Cl)cc1 | i
COCC(=O)N(C)C[C@@H]1Oc2cc(C#CCC3CCCC3)ccc2S(=O)(=O)N([C@@H](C)CO)C[C@H]1C | i
Cc1noc(C)c1NC(=O)N(C)C[C@H]1Oc2ncc(C#CC(C)C)cc2C(=O)N([C@H](C)CO)C[C@@H]1C | i
O=C(NC1CCCCC1)N[C@@H]1CC[C@H](CC(=O)N2CCOCC2)O[C@H]1CO | i
COC(=O)c1ccc(Cl)c(NC(=O)CSc2nc(C)cc(C(F)(F)F)n2)c1 | i
COc1cc(S(=O)(=O)NCc2cccnc2)ccc1F | i
C[C@H](O)C#Cc1cnc2c(c1)C(=O)N([C@@H](C)CO)C[C@H](C)[C@H](CN(C)Cc1cccc(F)c1)O2 | i
COc1ccc(OC)c(NC(=O)CC2NCCNC2=O)c1 (configuration not stated) | i
CC(NC(=O)c1ccccc1NC(=O)c1ccccc1)C(=O)Nc1ccc2ccccc2c1 (configuration not stated) | i
O=C(C[C@@H]1C=C[C@@H](NC(=O)C2CCC2)[C@H](CO)O1)NC1CCC1 | i
C[C@@H]1CN([C@H](C)CO)C(=O)CCCn2nncc2CO[C@H]1CN(C)Cc1ccc(Cl)c(Cl)c1 | i
COc1cccc(NC(=O)N[C@@H]2C=C[C@@H](CC(=O)NCc3ccncn3)O[C@H]2CO)c1 | i
Cc1cc([N+](=O)[O-])nn1CC(=O)N1CCOCC1 | i
COC(=O)c1ccccc1O[C@@H]1O[C@H](CO[C@@H]2OC[C@@H](O)[C@H](O)[C@H]2O)[C@@H](O)[C@H](O)[C@H]1O | i
COCC#Cc1cnc2c(c1)C(=O)N([C@@H](C)CO)C[C@H](C)[C@@H](CN(C)Cc1ccccc1)O2 | i
COc1cc2c(cc1NC(=O)CSc1nnnn1C)oc1ccccc12 | i
C[C@H](CO)N1C[C@H](C)[C@@H](CN(C)Cc2cccnc2)Oc2ncc(C3=CCCCC3)cc2C1=O | i
c1ccc(-c2ncc(CN3CCN(c4ccccn4)CC3)[nH]2)cc1 | i
C[C@@H]1CN([C@@H](C)CO)S(=O)(=O)c2ccc(-c3ccccc3F)cc2O[C@@H]1CN(C)C | i

Reprinted at random: 7 entries already listed.
SMILES | ID4 binder
COCC#Cc1cnc2c(c1)C(=O)N([C@@H](C)CO)C[C@H](C)[C@@H](CN(C)Cc1ccccc1)O2 | i
CCC(=O)N(C)C[C@H]1Oc2ncc(C#CCC(C)C)cc2C(=O)N([C@H](C)CO)C[C@@H]1C | i
Cc1cc([N+](=O)[O-])nn1CC(=O)N1CCOCC1 | i
O=C(C[C@H]1CC[C@H](NC(=O)CC2CC2)[C@H](CO)O1)NCc1ccc(Cl)cc1 | i
Cc1noc(C)c1NC(=O)N(C)C[C@H]1Oc2ncc(C#CC(C)C)cc2C(=O)N([C@H](C)CO)C[C@@H]1C | i
CC(C)c1ccc2oc(-c3ccc(Cl)c(NC(=O)COc4ccc([N+](=O)[O-])cc4)c3)nc2c1 | i
COc1cc2c(cc1NC(=O)CSc1nnnn1C)oc1ccccc12 | i

(continued)
SMILES | ID4 binder
CCc1cc2c(SCC(=O)Nc3cccc(OC)c3)ncnc2s1 | i
CN(C)C(=O)C[C@@H]1C[C@H]2c3cc(NC(=O)CC4CC4)ccc3O[C@H]2[C@@H](CO)O1 | i
Cc1ccc(-c2ccc3c(c2)O[C@@H](CN(C)Cc2cccnc2)[C@@H](C)CN([C@@H](C)CO)S3(=O)=O)cc1 | i
CCN(CC(=O)O)S(=O)(=O)c1ccc(OC)cc1 | i
C[C@@H]1CN([C@H](C)CO)C(=O)c2cc(C#Cc3ccccn3)cnc2O[C@@H]1CN(C)CC1CCCC1 | i
CCn1c(SCC(=O)Nc2ccc(Br)cc2Cl)nnc1-c1ccccc1 | i
Cc1cc(Cl)cc(Br)c1OCCCSc1ncccn1 | i
Cn1c(SCC(=O)Nc2ccc(Oc3ccccc3)cc2)nnc1-c1ccccc1Cl | i
CCOC(=O)c1c(C)cc(O)cc1O | i
COC(=O)c1cc(C(=O)NCc2ccco2)cc([N+](=O)[O-])c1 | i
CN1CCN(C(=O)C[C@@H]2C[C@@H]3c4cc(NS(=O)(=O)c5ccc(F)cc5)ccc4O[C@@H]3[C@@H](CO)O2)CC1 | i
NC(=O)CN1C(=O)C(O)(CC(=O)c2ccc(Cl)cc2Cl)c2ccccc21 (configuration not stated) | i
Cc1coc(C)c1C(=O)CC1(O)C(=O)N(Cc2cccc3ccccc23)c2ccccc21 (configuration not stated) | i
C[C@H]1CN([C@@H](C)CO)S(=O)(=O)c2ccc(-c3ccc(F)cc3)cc2O[C@H]1CN(C)C(=O)c1ccccc1F | i
C[C@@H]1CN([C@@H](C)CO)C(=O)c2cc(C#Cc3ccccc3)cnc2O[C@H]1CN(C)C(=O)C1CC1 | i
COc1ccccc1NC(=O)N[C@H]1CC[C@@H](CC(=O)N2CCC(Cc3ccccc3)CC2)O[C@@H]1CO | i
O=C(C[C@H]1C[C@H]2c3cc(NC(=O)C4CCOCC4)ccc3O[C@H]2[C@H](CO)O1)NCc1ccccn1 | i
O=C(C[C@@H]1C=C[C@H](NC(=O)CC2CC2)[C@@H](CO)O1)NCc1ccc(-c2ccccc2)cc1 | i
C[C@@H]1CN([C@H](C)CO)S(=O)(=O)c2ccc(C#Cc3cccc(F)c3)cc2O[C@@H]1CN(C)C | i
COC(=O)c1ccc(C(=O)OC)c(NC(=O)CSc2ccccn2)c1 | i
CC(=O)c1ccc(NC(=O)CSc2nc(C)c(C)c(=O)[nH]2)cc1 | i
COc1ccc(-n2c(SCC(=O)Nc3ccccc3OC)nc(O)cc2=O)cc1 | i
CN(C)CC(=O)Nc1ccc2c(c1)[C@H]1C[C@H](CC(=O)NCc3cccnc3)O[C@H](CO)[C@H]1O2 | i
COC(=O)c1cc(OC)c(OC)cc1NC(=O)c1cc(-c2ccc(C)o2)nc2ccccc12 | i
Cc1cc2nc(Sc3c([N+](=O)[O-])nc(C)n3Cc3ccccc3)[nH]c2cc1C | i
Next part:
SMILES | ID4 binder
CCCc1cn(CC[C@@H]2CC[C@@H](NC(=O)C3CCC3)[C@@H](CO)O2)nn1 | i
COc1ccc(S(=O)(=O)N(C)CC(=O)Nc2ccc(Br)cc2F)cc1Cl | i
O=C1CC(c2ccccc2F)C2=C(CC(c3ccc(F)cc3)CC2=O)N1 (configuration not stated) | i
CCc1ccc(OCC(=O)Nc2ccccc2-c2nc3ccccc3s2)cc1 | i
O=C(CSc1nnc(-c2ccc(Cl)cc2)n1-c1ccc(F)cc1)N1CCOCC1 | i
C=C1C(N)CC2CC1C2(C)C (configuration not stated) | i
Cc1ccc(C)c(NC(=O)CCCn2cc([N+](=O)[O-])cn2)c1 | i
CC1=C(C(=O)OCc2ccccc2)C2(O)C(=O)c3ccccc3C2(O)N1 (configuration not stated) | i
COC(=O)CSc1cc(C)nc(SC)n1 | i
O=C(O)c1ccc2c(c1)C1C3CCC(C3)C1C(c1ccccc1)N2 (configuration not stated) | i
C[C@H]1CN([C@@H](C)CO)S(=O)(=O)c2ccc(C#CC3CC3)cc2O[C@H]1CN(C)Cc1cccc(F)c1 | i
CN(C)C(=O)[C@@]1(Cc2ccccc2)COC(c2ccc(OCCCO)cc2)=N1 | i
OC(COCC1COc2ccccc2O1)CN1CCOCC1 (configuration not stated) | i
COc1ccc([N+](=O)[O-])cc1NC(=O)CCN1CCN(c2cccc(C(F)(F)F)c2)CC1 | i
CCC(=O)N(C)C[C@@H]1Oc2ncc(C#Cc3ccccc3)cc2C(=O)N([C@@H](C)CO)C[C@H]1C | i
COc1cc2[nH]c(=S)n(CCc3cnc[nH]3)c(=O)c2cc1OC | i
CC(NCC(O)Cn1c2ccccc2c2ccccc21)C(=O)O (configuration not stated) | i
C[C@@H]1CN([C@@H](C)CO)C(=O)c2ccccc2-c2ccccc2CO[C@@H]1CN(C)C(=O)c1ccncc1 | i
CCCC#Cc1cnc2c(c1)C(=O)N([C@H](C)CO)C[C@H](C)[C@H](CN(C)C(=O)C1CCCCC1)O2 | i
CN(C)c1ccc2c(c1)[C@H]1C[C@H](CC(=O)NCc3ccccc3)O[C@H](CO)[C@H]1O2 | i
CCCC#Cc1ccc2c(c1)O[C@@H](CN(C)C)[C@@H](C)CN([C@H](C)CO)S2(=O)=O | i
Cc1ccc(NC(=O)CN(C)S(=O)(=O)c2ccc(Br)cc2)cc1C | i
CCCC#Cc1cnc2c(c1)C(=O)N([C@@H](C)CO)C[C@H](C)[C@@H](CN(C)C(=O)Nc1cc(F)ccc1F)O2 | i
Cc1cc(C)cc(N(C(C)C(=O)NC2CCCC2)S(C)(=O)=O)c1 (configuration not stated) | i
O=C(C[C@@H]1C=C[C@H](NS(=O)(=O)c2ccccc2)[C@@H](CO)O1)NCc1ccc(Cl)c(Cl)c1 | i
Next entries:
SMILES | ID4 binder
CC(=O)N(C)C[C@@H]1Oc2ncc(C#Cc3ccccc3F)cc2C(=O)N([C@@H](C)CO)C[C@H]1C | i
CCC(=O)N[C@@H]1C=C[C@@H](CC(=O)OC)O[C@H]1CO | i
COc1ccccc1NC(=O)CSc1ncnc2sc(-c3ccccc3)cc12 | i
O=C(COc1ccc2c(=O)c(-c3ccccc3)coc2c1)Nc1ccc(F)cc1 | i
Cc1cc(C)c(NC(=O)CN(c2ccc(Cl)cc2C)S(C)(=O)=O)c(C)c1 | i
COc1ccc(C(C)NC(=O)c2cc(-c3ccccn3)nc3ccc(Br)cc23)cc1OC (configuration not stated) | i
O=C(C[C@H]1C[C@H]2c3cc(NC(=O)Nc4ccc(C(F)(F)F)cc4)ccc3O[C@H]2[C@H](CO)O1)NCc1ccccn1 | i
COc1ccc(-c2nnc(SCC(N)=O)n2C)cc1OC | i
CC(C)CC#Cc1cnc2c(c1)C(=O)N([C@H](C)CO)C[C@H](C)[C@H](CN(C)C(=O)c1ccccc1)O2 | i
CNC[C@H]1Oc2cc(-c3ccccc3OC)ccc2S(=O)(=O)N([C@H](C)CO)C[C@@H]1C | i
Nc1nnc(SCC(=O)Nc2cccc(Cl)c2Cl)s1 | i
C[C@H](CO)N1C[C@H](C)[C@H](CN(C)Cc2ccc(O)cc2)OCc2ccccc2-c2ccccc2C1=O | i
O=C(CSc1nnc(-c2ccncc2)n1-c1ccccc1)Nc1ccc(C(F)(F)F)cc1 | i
Cn1c(SCC(=O)Nc2ccccc2Cl)nnc1-c1cccnc1 | i
CCn1c(SCC(=O)Nc2cc(C)c(Cl)cc2OC)nnc1-c1cnccn1 | i
C=CCOC(=O)[C@@H]1[C@H]2C(=O)O[C@H](c3ccccc3)[C@H](c3ccccc3)N2[C@H](c2ccc(OCCOC(=O)[C@@H]3C[C@@H]4C(=O)N[C@@H](Cc5ccccc5)C(=O)N4[C@@H]3c3ccc(O)cc3)cc2)[C@@]12C(=O)Nc1ccccc12 | i
COc1cc(NC(=O)CCCN2C(=O)c3ccccc3C2=O)c(OC)cc1Cl | i
O=C(O)c1cn(C2CC2)c2cc(N3CCNCC3)c(F)cc2c1=O | i
COC(=O)C1=C(C)NC(C)=C([N+](=O)[O-])C1c1ccccc1C(F)(F)F (configuration not stated) | i
C[C@@H]1CN([C@H](C)CO)C(=O)Cc2cc(N(C)C)ccc2O[C@@H]1CN(C)C(=O)NC1CCCCC1 | i
O=C(N[C@@H]1C=C[C@H](CC(=O)N2CCOCC2)O[C@H]1CO)c1cccc(F)c1 | i
CC(C)c1ccc(OCC(=O)Nc2cccc3ncccc23)cc1 | i
CC(C)CC#Cc1cnc2c(c1)C(=O)N([C@H](C)CO)C[C@@H](C)[C@H](CN(C)C(=O)CC1CC1)O2 | i
O=C(CC1NC(=O)NC1=O)Nc1ccc(F)cc1 (configuration not stated) | i
CC(=O)N(C)C[C@@H]1Oc2cc(C#C[C@H](C)O)ccc2S(=O)(=O)N([C@@H](C)CO)C[C@H]1C | i
(next part)
SMILES | ID4 binder
COc1ccccc1C#Cc1ccc2c(c1)O[C@H](CN(C)C)[C@@H](C)CN([C@H](C)CO)S2(=O)=O | i
CCN(Cc1ccccc1)C(=O)CSC1=Nc2ccccc2C2=NC(c3ccccc3)C(=O)N12 (configuration not stated) | i
O=C(C[C@@H]1C=C[C@H](NC(=O)CN2CCOCC2)[C@@H](CO)O1)NCc1cccc(F)c1 | i
O=C1C(c2c(O)[nH]c3ccccc23)=Nc2ccccc21 | i
COC(=O)CSc1nnc2c3c4c(sc3nc(-c3ccccc3Cl)n12)CCCC4 | i
C[C@H](CO)N1C[C@H](C)[C@H](CN(C)Cc2ccncc2)Oc2ncc(/C=C/c3ccccc3)cc2C1=O | i

Another view of part of the listing above.
canonical_smiles	ID4 binder
CCN(Cc1ccccc1)C(=O)CSC1=Nc2ccccc2C2=NC(c3ccccc3)C(=O)N12 (configuration not stated)	i
O=C(C[C@@H]1C=C[C@H](NC(=O)CN2CCOCC2)[C@@H](CO)O1)NCc1cccc(F)c1	i

A second format for some results above:
> COc1ccccc1C#Cc1ccc2c(c1)O[C@H](CN(C)C)[C@@H](C)CN([C@H](C)CO)S2(=O)=O
  ID4 binder = i

> CCN(Cc1ccccc1)C(=O)CSC1=Nc2ccccc2C2=NC(c3ccccc3)C(=O)N12 (configuration not stated)
  ID4 binder = i

> O=C(C[C@@H]1C=C[C@H](NC(=O)CN2CCOCC2)[C@@H](CO)O1)NCc1cccc(F)c1
  ID4 binder = i

An excerpt; rates above refer to the full screens.
